Screens from PubChem.
S aureus helic – S. aureus DNA helicase inhibition | 0.05% of 120,000 active | AID 485395 | purified S. aureus helicase, fluorescence unwinding assay; about half of the hits fall short of the stated cut | inhibition, %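 (tested at about 80 µM)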;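 active = both duplicates at 50% or more, or one of them with a favoured structure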;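 note: 0% = mean of negative control wells and 100% = mean of positive control wells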
MgrA-DNA mod – alters Staphylococcus aureus MgrA binding to DNA; fluorescence polarization; inhibition, %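 (about 10 µg/mL by stock and volumes)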; 0.13% of 84,000 active;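 active = above 50% in either of two replicates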;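 note: 0% = protein plus DNA without compound and 100% = DNA alone without protein; higher means less MgrA bound to DNA so lower polarization; one replicate is shown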
Numbers without * were called inactive; . = no result given. The list is partial; the hit share may differ from the screen's.

The line under a structure holds: S aureus helic	MgrA-DNA mod
> CCCC1O[C@@H]2C[C@H]3[C@@H]4CCC5=CC(=O)C=C[C@]5(C)[C@H]4[C@@H](O)C[C@]3(C)[C@]2(C(=O)CO)O1 (stereo partly specified)
    .	-0.1
> O=C(c1ccccc1)N1CCN(C(=O)c2cnn3c2NC(c2ccc(Br)cc2)CC3C(F)(F)F)CC1 (stereo unspecified)
    .	-0.6
> CCOc1cc(C(F)(F)F)c(C(=O)N(CC)Cc2ccc(Cl)cc2)cn1
    .	-2.9
> Cc1ccccc1C(=O)NC(=S)NC1CCSC1=O (stereo unspecified)
    9	-2.2
> CC(C)CN(Cc1c(O)ccc2c1oc(=O)c1ccccc12)CC(C)C
    28	-0.8
> Cc1ccc2nc3ccc(N4CCC(Cc5ccccc5)CC4)nn3c(=O)c2c1
    8	-0.8
> O=C(CC1C(=O)N(Cc2ccccc2)C(=S)N1CCc1ccc(Cl)cc1)Nc1ccccc1 (stereo unspecified)
    -6	1.2
> Cn1cccc1/C=C/C(=O)O
    39	.
> O=C(COc1ccc(-c2nnco2)cc1)Nc1ccc2c(c1)OC(F)(F)O2
    6	.
> Cc1nc2cc(NC(=O)N3CCCC3)ccc2n1C
    2	-0.8
> O=C(Cn1c(=O)n(Cc2ccco2)c(=O)c2sc3ccccc3c21)NCc1ccccc1
    13	.
> CCOC(=O)c1c(-c2ccccc2)oc2c1cc(OC(=O)Cc1ccccc1)c1ccccc12
    .	0.5
> CC(C)[C@H](NC(=O)COc1ccc2ccccc2c1)C(=O)O
    -3	.
> O=C(CCc1ccccc1)OCCN1CCOCC1
    23	.
> Nc1nnnn1CC(=O)NC1(C(=O)Nc2ccccc2)CCCCC1
    2	.
> O=C1CCC/C(=N/NC(=O)c2ccc(NS(=O)(=O)c3cccs3)cc2)C1
    1	.
> CN(C(=O)COC(=O)c1ccccc1NS(C)(=O)=O)C1(C#N)CCCCC1
    4	.
> Cc1ccc(CCNc2ccccc2C)cn1
    3	.
> COC(=O)c1ccc(NC(=O)CSC2=Nc3ccccc3C3CC=NN23)cc1 (stereo unspecified)
    5	.
> CC1CC(C)CN(C(=O)C(C)Sc2nnnn2-c2ccc(Cl)cc2)C1 (stereo unspecified)
    19	.
> CN(C)C(=O)Cn1c(=O)cnc2ccccc21
    -11	.
> Cc1c(C(=O)NCCc2ccc(S(N)(=O)=O)cc2)sc2nc(-c3ccccc3)cn12
    19	.
> O=C(COC(=O)c1cccnc1Cl)c1ccc(F)cc1
    -3	0.6
> C/C(=N\O)c1ccc2c(c1)CCC2
    .	2.8
> Nc1nnc(SCC(=O)NCc2ccco2)s1
    2	-0.3
> Cc1nc2cccc(C(=O)O)c2o1
    10	-8.2
> Cc1nc2ccccc2c2oc(C(=O)NCc3ccc(Cl)cc3)cc12
    -3	.
> CC(O)C(O)(c1ccccc1)c1ccccc1 (stereo unspecified)
    20	-1.8
> COc1ccccc1OCCSc1nc(C)cc(C)n1
    9	-0.5
> CCOC(=O)NN1CC(O)=C(c2nc3ccccc3n2C)C1=N
    -50	.
> Cc1cc(-c2onc(C)c2-c2noc(C)n2)no1
    5	.
> O=C(Nc1ccc(S(=O)(=O)NC2=NCCCCC2)cc1)c1cccs1
    14	.
> Cc1c(Cl)cccc1NC(=S)NCc1cccn1C
    5	5.3
> Nc1cc(N)nc(SCC(=O)Nc2ccccc2)n1
    -14	1.1
> O=C(Cn1ncc2c(=O)oc3ccccc3c21)NCc1cccnc1
    6	.
> O=C(CSc1n[nH]c(-c2ccncc2)n1)N(c1ccccc1)C1CCCCC1
    -6	.
> O=C(NCc1cccc2ccccc12)C(c1ccccc1)c1ccccc1
    0	-1.9
> CC(C)OC(=O)CCN1C(=O)/C(=C/c2ccccc2)SC1=S
    9	1.4
> CCn1c(C2CC(=O)N(CCc3ccccc3)C2)nc2ccccc21 (stereo unspecified)
    16	2.5
> O=C(CCSc1nc(-c2ccco2)cc(C(F)(F)F)n1)NC1CC1
    12	-1.1
> O=C(C1COc2cc(S(=O)(=O)N3CCOCC3)ccc2O1)N1CCOCC1 (stereo unspecified)
    11	.
> S=C(Nc1ccccc1)N1CCCC1
    6	1.4
> C=CCN=C1CCCc2c1[nH]c1ccc(C)cc21
    3	1.9
> CCN(c1ccccc1)S(=O)(=O)c1ccc(CCN2C(=O)c3cccnc3C2=O)cc1
    6	-3.0
> Cc1onc(-c2c(F)cccc2Cl)c1C(=O)OCC(=O)NC1CC1
    -2	.
> Cn1c(SCCn2c(=S)n(C)c3ccccc32)nc2ccccc21
    -27	.
> Cc1cccn2cc(CNc3nc4ccccc4s3)nc12
    -8	-2.7
> Cc1nn(C(=O)CNC(=O)c2ccccc2)c(C)c1C
    11	-0.8
> CCNS(=O)(=O)c1cc(S(C)(=O)=O)ccc1Cl
    -7	-0.9
> CC1(C)CC2CC(C)(CN2C(=O)COC(=O)C2CCN(c3ccc(C(F)(F)F)cn3)CC2)C1 (stereo unspecified)
    25	.
> CCOC1(NC(=O)c2ccccc2)C(C)=CC(=O)C=C1C
    0	0.4
> CC(C(=O)c1ccccc1)n1cnc2ccccc2c1=O (stereo unspecified)
    -3	-3.0
> O=C(Nc1nc(-c2ccco2)c(-c2ccco2)s1)OCc1ccccc1
    -26	.
> N#CC(c1cccc(C(F)(F)F)c1)N1CCOCC1 (stereo unspecified)
    .	0.2
> CCOC(=O)c1c(C)[nH]c(-c2csc(C)n2)c1C
    10	-1.1
> N/C(=N\O)c1cc(Cl)cc(Cl)c1
    .	3.5
> CC1(C)CC(O)CC(C)(C)N1CC(O)COCc1ccccc1 (stereo unspecified)
    -15	.
> C=CCN(C)C1CC(=O)N(c2ccc(C)c(Cl)c2)C1=O (stereo unspecified)
    -3	0.1
> Cc1ccc2c(n1)sc1c(O)cc(=O)[nH]c12
    -27	.
> CCOC(=O)N1CCC(NC(=O)c2cc(S(=O)(=O)NCCc3ccccc3)ccc2F)CC1
    3	.

(further entries)
The line under a structure holds: S aureus helic	MgrA-DNA mod
> COc1cc(NC(=O)Cn2nc(C(F)(F)F)c(Br)c2C)cc([N+](=O)[O-])c1
    .	2.0
> Cc1c2c(n3c(nc4ccccc43)c1C#N)N(C1CCCC1)CC2
    -6	.
> O=C(O)c1cccc(S(=O)(=O)N2CCc3ccccc3C2)c1
    -2	-5.3
> O=C(CN1CC(C(=O)N2CCOCC2)Oc2ccccc21)Nc1ccccc1C(=O)NC1CCCC1 (stereo unspecified)
    -10	.
> O=C(c1ccccc1)N1CCN(CC(O)COc2ccc(Cl)cc2Cl)CC1 (stereo unspecified)
    -14	.
> Cc1nn(-c2ccccc2)c(C)c1/C=C/C(=O)OCC(=O)Nc1c(C#N)oc2ccccc12
    4	.
> Cc1cc2nc3s/c(=C/c4ccc5c(c4)OCO5)c(=O)n3c2cc1C
    -42	.
> CC(C)CC(=O)n1nc(-c2cccnc2)nc1NCc1ccccc1
    -17	.
> CC(=O)Nc1ccc(S(=O)(=O)N2CCCC(C(F)(F)F)C2)cc1 (stereo unspecified)
    -19	.
> O=c1oc2c(-c3cc(Cl)cc(Cl)c3)cc(O)cc2s1
    3	0.0
> Cc1cc(Cl)ccc1OCCCC(=O)Nc1ccccc1C(F)(F)F
    13	-1.4
> CCn1ccc(C(=O)NC2=C(C#N)CCC2)n1
    7	.
> CC(Sc1nncn1C)C(=O)c1ccc(C(C)(C)C)cc1 (stereo unspecified)
    3	.
> Cc1csc2sc(C=NCc3cccs3)c(C)c12
    .	-0.1
> CNC[C@@H](O)c1ccc(O)c(O)c1
    .	0.8
> CC(C)(C)c1cc(NS(=O)(=O)c2ccc3c(c2)OCCO3)on1
    -5	.
> CC(=O)Oc1ccc(N2C(=O)C3C4C=CC(C(OC(C)=O)OC(C)=O)(O4)C3C2=O)cc1 (stereo unspecified)
    -2	0.8
> O=C1c2cc([N+](=O)[O-])ccc2-c2c(O)cc([N+](=O)[O-])cc21
    .	-0.1
> Cc1cc(OCc2nnc(SCC(=O)OC(C)C)o2)ccc1Cl
    2	0.4
> COc1ccc2oc(-c3ccc(NC(=S)NC(=O)COc4ccccc4)cc3)nc2c1
    0	0.1
> O=C(CCN1CCC(c2ccccc2)C1)c1cccs1 (stereo unspecified)
    -1	-10
> OCCCc1nc2ccc(Cl)cc2[nH]1
    .	-1.8
> CCOC(=O)C1=C(C)N=c2s/c(=C\c3ccc(OC(C)=O)c(OCC)c3)c(=O)n2C1c1ccc(OC)c(OC)c1 (stereo unspecified)
    .	-1.3
> C=CCN(C(=O)CSc1cc(=O)n(CC)c2ccccc12)c1ccccc1
    5	-1.4
> CN(C)S(=O)(=O)c1ccc2oc3nnc(SCCCC(=O)N4CCOCC4)n3c2c1
    22	.
> COc1ccc(-c2nn3cnnc3s2)cc1
    -18	.
> COc1ccc(/C=N/NC(C)(C)C)cc1O
    6	.
> CN1CCN(S(=O)(=O)c2ccc(N)cc2)CC1
    17	.
> Cn1cnnc1Sc1nc2ccccc2nc1Cl
    4	.
> CC1=C(C(=O)Nc2ccccc2)C(c2ccccc2Cl)n2ncnc2N1 (stereo unspecified)
    16	.
> CCN(CC)c1nc(C(F)(F)F)nc2c1nnn2Cc1ccccc1
    3	-1.1
> Cc1ccc(S(=O)(=O)N2CCN(CC(=O)c3c(C)[nH]c4ccccc34)CC2)cc1
    17	.
> CCS(=O)(=O)c1ccc(S(=O)(=O)CC)s1
    8	1.6
> CCS(=O)(=O)CCc1nnc(NC(=O)Nc2cccc(C(F)(F)F)c2)s1
    6	3.0
> OC(CSc1ccccc1)CN1CCN(c2nccc(C(F)(F)F)n2)CC1 (stereo unspecified)
    .	0.1
> CCN(CC)Cn1nc2c3c(cccc3c1=O)-c1ccccc1-2
    24	-0.8
> CCOC(=O)c1cnc(-c2ccccc2)nc1NCc1ccccc1
    11	-1.5
> COc1ccc(N=C2SC(C(=O)Nc3ccc(OC)cc3)CC(=O)N2CCc2ccc(OC)c(OC)c2)cc1 (stereo unspecified)
    .	0.3
> CC1=CCC2CC1C(c1ccccc1)OC2(C)C (stereo unspecified)
    1	0.2
> O=c1[nH]c2ccc(NCc3ccc(F)cc3)cc2[nH]1
    1	.

3 of these compounds in a different format.
| SMILES | S aureus helic | MgrA-DNA mod |
| --- | --- | --- |
| Cn1cnnc1Sc1nc2ccccc2nc1Cl | 4 | . |
| OC(CSc1ccccc1)CN1CCN(c2nccc(C(F)(F)F)n2)CC1 (stereo unspecified) | . | 0.1 |
| COc1ccc(/C=N/NC(C)(C)C)cc1O | 6 | . |

More results follow.
The line under a structure holds: S aureus helic	MgrA-DNA mod
> CC(=N/O)/C(=N\O)c1ccc(C)o1
    7	0.0
> O=C(NC(c1cccs1)c1ccc2cccnc2c1O)C1CCCCC1 (stereo unspecified)
    16	.
> COc1cccc(OC)c1OC(=O)c1cc(C)ccc1C
    -6	.
> CCOC(=O)N1CCN(C(=O)COC(=O)C2=C(Nc3ccccc3)OCC2=O)CC1
    -5	.
> Cc1nn(CC(=O)NCCSCc2ccco2)c(C)c1Br
    -4	.
> CC(C)N(CC(N)=O)C(=O)/C=C/c1ccc(Cl)c(Cl)c1
    -27	.
> COc1cc2c(cc1OC)CN(S(=O)(=O)c1c(C)nn(C)c1C)CC2
    .	-1.9
> O=S(=O)(NC1CC1)c1ccc(S(=O)(=O)N2CCCc3ccccc32)cc1
    17	-2.0
> Cc1nc(C(=O)Nc2ccc3nsnc3c2)cc2c1[nH]c1ccccc12
    10	.
> CC(C)(C)c1cc(NC(=O)COc2ccc(Cl)cc2Cl)on1
    -4	.
> Cc1ccc(N=c2scc(-c3cccs3)n2CCCN2CCOCC2)cc1
    -18	.
> CCOC(=O)N1CCN(C(=O)COc2ccccc2)CC1
    6	3.3
> Cc1nc(C)c2c(=O)cc(-c3ccccc3)[nH]c2n1
    4	-2.9
> C=CCN1C(=O)/C(=c2\sc3n(c2=O)C(c2ccc(OC)cc2)C(C(=O)OC)=C(C)N=3)c2ccccc21 (stereo unspecified)
    .	-2.0
> O=C(/C=C/c1ccccc1)NC1CC1
    -2	1.9
> CCOC(=O)c1cc2c(nc1N)CC(C)(C)OC2
    16	0.7
> C=CCc1cccc(Cl)c1OCCSc1ncccn1
    0	-1.6
> Cn1cnc(S(=O)(=O)Nc2ccccc2N2CCOCC2)c1
    .	-1.6
> Cc1ccc(C2=NN(C(=O)CSc3ccc4c(c3)OCCO4)C(c3ccco3)C2)cc1 (stereo unspecified)
    5	.
> Cc1ccc(C)c(N2C(=O)N(Cc3ccccc3Cl)C3CS(=O)(=O)CC32)c1 (stereo unspecified)
    2	.
> Cc1ccc2c(CN3CCN(S(=O)(=O)c4ccccc4)CC3)cc(=O)oc2c1C
    -5	.
> CCOC(=O)c1cc2occc2n1CC(=O)N(C(C)C)C(C)C
    -2	-2.0
> Nc1ncnc2c1ncn2CCc1ccccc1
    .	-0.7
> Cc1ccc(CSC2=NCCCN2)cc1
    .	-2.0
> CCc1c(C#N)c(N)nc2sc(C(=O)Nc3ccc(Br)cc3)c(N)c12
    -9	.
> O=C(CCCN1C(=O)/C(=C\c2ccco2)SC1=S)NC1CCCCC1
    4	.
> COc1ccc(C(CNC(=O)c2ccccc2)N(C)C)cc1 (stereo unspecified)
    -14	.
> COC(=O)C1=C(C)NC2=C(C(=O)CC(c3ccco3)C2)C1c1ccco1 (stereo unspecified)
    .	-0.6
> CCC(Oc1ccc(Br)cc1)C(=O)Nc1nccc(C)n1 (stereo unspecified)
    9	-0.3
> CCc1ccc(NC(=O)CSc2ncnc3c2sc2ccccc23)cc1
    14	-1.4
> COc1cc(C(=O)OCCCCN2C(=O)c3ccccc3C2=O)cc(OC)c1OC
    3	.
> O=C(O)CNc1nc(-c2ccccc2)c2cc(Br)ccc2n1
    6	.
> O=S(=O)(NCC12CC3CC(CC(C3)C1)C2)c1cccc2nsnc12
    -4	1.0
> COc1ccc(C=Nc2ccc(C)cc2C)cc1
    10	-1.1
> COc1ccc(C(=O)CC(=O)Nc2ccccc2)cc1OC
    .	-1.6
